Vaccinia inh: blocks a specific stage of Vaccinia orthopoxvirus infection, primary screen, cell-based, single point. 89,000 compounds, 0.01% hits. Vaccinia-infected cells, mCherry/Venus stage reporter fluorescence; hits give low values; some inactives read as strong as hits. activity change (mCherry), % (concentration not given with the values);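 active = mCherry past -33% and 40 or more points under the early reporter, replicates agreeing; inconclusive = past -33% without that gap or agreement; tested in A549 cells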;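 also: scaled between vehicle wells and reference inhibitor wells; 23 nL library stock went into each well; one replicate is shown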
Vaccinia inh Venus: also measured in Vaccinia inh; calls as there; activity change (Venus), %; measured here: Venus reporter, other viral stage;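 negative = less Venus signal; first of two replicates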
Numbers without * were called inactive; ? = inconclusive; nt = no result given.

SMILES | Vaccinia inh | Vaccinia inh Venus
CC(C)NC(=O)N(C)C[C@@H]1Oc2ccc(NS(=O)(=O)c3ccc(F)cc3)cc2C(=O)N([C@@H](C)CO)C[C@H]1C | 9.7 | 2.7
C[C@H]1CN([C@@H](C)CO)C(=O)c2cc(NC(=O)NC3CCCCC3)ccc2O[C@@H]1CN(C)S(=O)(=O)c1cn(C)cn1 | 13.3 | -0.8
C/C=C/c1ccc([C@H]2[C@@H](CO)N(C(=O)c3ccccc3)C23CN(C(C)=O)C3)cc1 | 0.5 | 4.6
C[C@H]1CN([C@@H](C)CO)C(=O)c2cc(NC(=O)Cc3cn(C)c4ccccc34)ccc2O[C@H]1CN(C)C(=O)Nc1ccc(C(F)(F)F)cc1 | -11.6 | 10.8
COc1cccc(-c2ccc3c(c2)O[C@H](CN(C)C)[C@@H](C)CN([C@H](C)CO)S3(=O)=O)c1 | -9.7 | -2.9
N#C[C@H]1[C@@H](c2ccc(C3=CCCCC3)cc2)[C@@H](CO)N1C(=O)Nc1ccccc1F | -8.6 | -0.2
Cc1ccc(S(=O)(=O)Nc2cccc3c2O[C@H](CN(C)C(=O)Nc2c(C)noc2C)[C@@H](C)CN([C@H](C)CO)C3=O)cc1 | 15.8 | 12.3
COc1ccc(NC(=O)Nc2cccc3c2O[C@@H](CN(C)C(=O)Nc2ccc(F)cc2)[C@H](C)CN([C@@H](C)CO)C3=O)cc1 | 15.0 | 9.4
C[C@H](CO)N1C[C@H](C)[C@H](CN(C)C(=O)Nc2ccc(C(F)(F)F)cc2)Oc2ccc(NC(=O)Cc3ccccc3)cc2C1=O | -24.7 | -20.5
COc1ccc2c3c(n(C)c2c1)[C@H](CO)N(Cc1ccc(Cl)cc1)CC31CCN(C(=O)NC(C)C)CC1 | -10.3 | -2.9
CN(C)Cc1cn(CC[C@H]2CC[C@H](NS(=O)(=O)c3ccc(-c4ccccc4)cc3)[C@@H](CO)O2)nn1 | -30.2 | -22.4
C[C@H]1CN([C@@H](C)CO)C(=O)c2cccc(NS(=O)(=O)c3ccc(Cl)cc3)c2O[C@@H]1CN(C)C(=O)Nc1ccc2c(c1)OCO2 | 13.5 | 2.4
COc1cccc(CNC(=O)[C@H]2[C@H](CO)[C@H]3Cn4c(cccc4=O)[C@@H]2N3C(=O)C2CCCC2)c1 | 19.5 | 1.1
CN1C(=O)c2cc(NC(=O)c3ccccc3Cl)ccc2OC[C@H]2O[C@H](CC(=O)NCC(F)(F)F)CC[C@@H]21 | 14.9 | 7.1
CN(C)C(=O)C[C@@H]1CC[C@H](NC(=O)C2CCC2)[C@H](CO)O1 | -2.7 | -2.0
CO[C@H]1CC[C@@H]2CCN(C)C(=O)C[C@@H](c3ccccc3)CN(C)C(=O)c3cc(C#N)ccc3OC[C@@H]1O2 | 3.2 | -1.3
O=C(C[C@@H]1CC[C@H]2[C@@H](COC[C@@H](O)CN2Cc2cc(F)ccc2F)O1)N[C@H]1CCN(Cc2ccccc2)C1 | ? | nt
C[C@H]1CN([C@@H](C)CO)C(=O)Cc2cc(NC(=O)Cc3cn(C)c4ccccc34)ccc2O[C@H]1CN(C)C(=O)NC1CCCCC1 | 4.7 | 4.5
COc1ccc(S(=O)(=O)Nc2ccc3c(c2)[C@@H]2C[C@@H](CC(=O)N(C)C)O[C@@H](CO)[C@@H]2O3)cc1 | 6.4 | -6.1
CO[C@@H]1CN(C)C(=O)c2ccc(NC(=O)c3ccc(Oc4ccccc4)cc3)cc2OC[C@@H](C)NC[C@H]1C | ? | nt
C/C=C/c1ccc([C@H]2[C@@H](CO)N(C(=O)c3cnccn3)C23CN(C(C)=O)C3)cc1 | 12.6 | 8.0
O=C(C1CCCCC1)N1CC[C@@H]2[C@H](CO)Nc3ccc(C#Cc4ccc(F)cc4)cc3[C@@H]21 | -8.4 | 0.2
Cc1ccc(S(=O)(=O)N(C)C[C@@H]2Oc3ccc(NC(=O)Cn4cnnn4)cc3C(=O)N([C@@H](C)CO)C[C@H]2C)cc1 | 4.0 | 4.7
CCCNC(=O)Nc1ccc2c(c1)OC[C@H](C)N(C)C[C@@H](C)[C@@H](OC)CN(C)C2=O | -9.2 | -8.8
C[C@@H]1CN([C@@H](C)CO)C(=O)c2cc(/C=C/c3ccccc3)cnc2O[C@@H]1CN(C)S(=O)(=O)c1ccccc1 | -6.8 | -6.5

Looked up one by one from above (two):
SMILES | Vaccinia inh | Vaccinia inh Venus
C[C@H]1CN([C@@H](C)CO)C(=O)c2cc(NC(=O)Cc3cn(C)c4ccccc34)ccc2O[C@H]1CN(C)C(=O)Nc1ccc(C(F)(F)F)cc1 | -11.6 | 10.8
O=C(C[C@@H]1CC[C@H]2[C@@H](COC[C@@H](O)CN2Cc2cc(F)ccc2F)O1)N[C@H]1CCN(Cc2ccccc2)C1 | ? | nt

Further entries follow:
SMILES | Vaccinia inh | Vaccinia inh Venus
CO[C@H]1CN(C)C(=O)c2cc(NS(=O)(=O)c3cccc(F)c3)ccc2OC[C@H](C)N(Cc2cc(F)ccc2F)C[C@@H]1C | ? | nt
CC(=O)N1[C@@H]2c3ccc(-c4cccc(F)c4)c(=O)n3C[C@@H]2[C@@H](CO)[C@@H]1C(=O)NCC1CC1 | 6.1 | 5.3
C[C@@H]1CN([C@H](C)CO)S(=O)(=O)c2ccc(C3=CCCC3)cc2O[C@@H]1CN(C)C(=O)CC1CC1 | 3.3 | 3.6
COc1ccc2c3c(n(C)c2c1)[C@H](CO)N(Cc1ccccc1)CC31CN(C(=O)Nc2cccc(F)c2)C1 | -12.3 | -10.2
CCCN(C)C[C@@H]1Oc2ncc(/C=C/c3ccccc3)cc2C(=O)N([C@H](C)CO)C[C@@H]1C | -23.8 | -14.8
CC(=O)N(C)C[C@@H]1Oc2ncc(C#CCc3ccccc3)cc2C(=O)N([C@@H](C)CO)C[C@H]1C | 8.1 | 2.0
C[C@@H]1CN([C@@H](C)CO)C(=O)c2cccc(NC(=O)C3CC3)c2O[C@H]1CN(C)C(=O)Nc1ccc(F)cc1 | 8.9 | 4.1
O=C(C[C@H]1C[C@@H]2c3cc(NC(=O)Cc4ccncc4)ccc3O[C@@H]2[C@H](CO)O1)NCc1ccccn1 | 3.9 | 2.6
C[C@@H]1CN([C@H](C)CO)S(=O)(=O)c2ccc(-c3cncnc3)cc2O[C@H]1CN(C)Cc1cccnc1 | 4.0 | 4.3
CCC(=O)Nc1ccc2c(c1)OC[C@@H](C)N(C(=O)COC)C[C@@H](C)[C@@H](OC)CN(C)C2=O | 2.7 | 7.4
C/C=C/c1ccc([C@H]2[C@H]3CN(C(=O)Nc4ccc(F)cc4)CCCCN3[C@H]2CO)cc1 | ? | nt
C[C@H](O)C#Cc1cnc2c(c1)C(=O)N([C@@H](C)CO)C[C@H](C)[C@H](CN(C)C(=O)CC1CC1)O2 | 8.6 | 9.3
COc1ccc(CN2C(C)C3C(C)=CC2C2C(=O)N(C)C(=O)C32)cc1 (stereo not drawn) | 8.0 | 3.3
COc1ccc2c3c([nH]c2c1)[C@H](CO)N(C(=O)Nc1ccc(F)cc1)CC31CN(S(=O)(=O)c2cccc(F)c2)C1 | 14.4 | 18.0
C[C@@H]1CN([C@@H](C)CO)C(=O)c2cc(NC(=O)NC3CCCCC3)ccc2O[C@@H](C)CCCCO[C@H]1CN(C)C(=O)NC1CCCCC1 | ? | nt
Cc1cc(C(=O)Nc2ccc3c(c2)C(=O)N(C)[C@@H]2CC[C@H](CC(=O)N[C@@H](C)c4ccccc4)O[C@H]2CO3)no1 | -5.4 | -4.9
[N-]=[N+]=NCc1ccccc1C[C@]1(C(=O)N2CCCCC2)N=C(c2ccc(OCCCO)cc2)O[C@H]1c1ccccc1 | ? | nt
C[C@@H]1CCCCO[C@@H](CN(C)CC2CCCCC2)[C@H](C)CN([C@@H](C)CO)C(=O)c2cc(NC(=O)Nc3ccc4c(c3)OCO4)ccc2O1 | 31.0 | 20.5
O=C(NC1CCC1)[C@@H]1[C@@H](CO)[C@@H]2Cn3c(ccc(-c4ccncc4)c3=O)[C@H]1N2Cc1cocn1 | 13.5 | 16.8
C[C@@H]1CCCCO[C@H](CN(C)C(=O)c2ccccc2)[C@@H](C)CN([C@H](C)CO)C(=O)c2cc(NC(=O)Nc3ccc(F)cc3)ccc2O1 | 24.4 | 7.6
Cc1ccc(S(=O)(=O)N(C)C[C@H]2Oc3c(cccc3N(C)C)C(=O)N([C@H](C)CO)C[C@@H]2C)cc1 | 0.6 | -1.8
CN1C(=O)c2cc(NC(=O)c3ccccc3)ccc2OC[C@@H]2O[C@H](CC(=O)O)CC[C@@H]21 | 10.1 | 8.6
CCCNC(=O)N1[C@H](CO)[C@H](c2ccccc2)[C@H]1CNC(=O)c1ccccc1 | 11.1 | 17.4
C[C@@H]1CN([C@H](C)CO)C(=O)c2cccc(NC(=O)C3CC3)c2O[C@@H]1CN(C)C(=O)Nc1ccc(C(F)(F)F)cc1 | 3.9 | 2.7
C[C@H]1CN([C@@H](C)CO)C(=O)c2cccc(NC(=O)C3CCCCC3)c2O[C@@H]1CN(C)Cc1ccc(Oc2ccccc2)cc1 | ? | nt

Among those listed so far, these have a CF3 group.
SMILES | Vaccinia inh | Vaccinia inh Venus
C[C@H]1CN([C@@H](C)CO)C(=O)c2cc(NC(=O)Cc3cn(C)c4ccccc34)ccc2O[C@H]1CN(C)C(=O)Nc1ccc(C(F)(F)F)cc1 | -11.6 | 10.8
C[C@H](CO)N1C[C@H](C)[C@H](CN(C)C(=O)Nc2ccc(C(F)(F)F)cc2)Oc2ccc(NC(=O)Cc3ccccc3)cc2C1=O | -24.7 | -20.5
CN1C(=O)c2cc(NC(=O)c3ccccc3Cl)ccc2OC[C@H]2O[C@H](CC(=O)NCC(F)(F)F)CC[C@@H]21 | 14.9 | 7.1
C[C@@H]1CN([C@H](C)CO)C(=O)c2cccc(NC(=O)C3CC3)c2O[C@@H]1CN(C)C(=O)Nc1ccc(C(F)(F)F)cc1 | 3.9 | 2.7

Carrying on.
SMILES | Vaccinia inh | Vaccinia inh Venus
COc1ccccc1C#Cc1cnc2c(c1)C(=O)N([C@H](C)CO)C[C@@H](C)[C@H](CN(C)C(=O)c1ccc3c(c1)OCO3)O2 | ? | nt
Cc1ccc(S(=O)(=O)N(C)C[C@@H]2Oc3ccc(NC(=O)c4ccncc4)cc3C(=O)N([C@H](C)CO)C[C@H]2C)cc1 | 0.8 | -1.2
COc1cccc(S(=O)(=O)N[C@H]2CC[C@@H](CC(=O)NC3CCC3)O[C@@H]2CO)c1 | -6.1 | -2.4
C[C@H](CO)N1C[C@H](C)[C@@H](CN(C)Cc2ccncc2)Oc2c(NC(=O)C3CC3)cccc2C1=O | 17.0 | 3.0
COCC(=O)N1[C@H](CO)[C@@H](c2ccc(C#Cc3ccccc3F)cc2)[C@@H]1C#N | -15.4 | -14.9
O=C(C[C@@H]1CC[C@H]2[C@@H](COC[C@@H](O)CN2C(=O)c2ccncc2)O1)NCc1cc(F)cc(F)c1 | 3.4 | 4.8
Cc1noc(C)c1NC(=O)N(C)C[C@H]1OCCCC[C@H](C)Oc2ccc(NC(=O)C3CCCCC3)cc2C(=O)N([C@@H](C)CO)C[C@@H]1C | 5.6 | 10.9
COCC(=O)Nc1ccc2c(c1)C(=O)N(C)C[C@H](OC)[C@H](C)CN(Cc1cccc(F)c1)[C@@H](C)CO2 | 5.7 | 2.1
CC(C)NC(=O)NCC[C@H]1CC[C@H](NS(=O)(=O)c2ccc(Oc3ccccc3)cc2)[C@@H](CO)O1 | -2.7 | -4.6
C[C@@H](NC(=O)C[C@@H]1C=C[C@@H](NC(=O)Cc2ccccn2)[C@H](CO)O1)c1ccccc1 | 10.5 | 13.7
O=S(=O)(c1cccc(F)c1)N1CC[C@@H]2[C@H]1c1cc(Br)ccc1N[C@@H]2CO | -32.4 | -14.9
C[C@H]1CN([C@@H](C)CO)C(=O)CCCn2cc(nn2)CO[C@H]1CN(C)C(=O)C1CCCCC1 | 1.0 | 2.1
O=C(NCc1ccccc1Cl)[C@@H]1[C@@H](CO)[C@@H]2Cn3c(cccc3=O)[C@@H]2N1C(=O)C1CCCC1 | 18.6 | 17.1
O=C(Nc1ccccc1)N1CC(=O)N2[C@H](CO)[C@H](c3ccc(C#CC4CC4)cc3)[C@@H]2C1 | -28.1 | -21.4
C[C@@H]1CN([C@H](C)CO)C(=O)c2cccc(NC(=O)Nc3ccc4c(c3)OCO4)c2O[C@H]1CN(C)Cc1ccc(Oc2ccccc2)cc1 | 11.5 | 10.8
CCCN1[C@@H]2c3ccc(C4=CCCCC4)c(=O)n3C[C@@H]2[C@@H](CO)[C@@H]1C(=O)NCCCN(C)C | 7.9 | 2.2
O=C(C[C@@H]1CC[C@@H](NS(=O)(=O)c2ccccc2)[C@H](CO)O1)NCc1ccc(Cl)c(Cl)c1 | -12.8 | -7.2
COc1ccc2c3c(n(C)c2c1)[C@@H](CO)N(C(=O)C1CCOCC1)CC31CN(C(=O)C2CCOCC2)C1 | 21.6 | 15.4
C[C@@H]1CCCCO[C@H](CN(C)S(=O)(=O)c2ccc(F)cc2)[C@H](C)CN([C@@H](C)CO)C(=O)c2cc(NS(=O)(=O)c3cn(C)cn3)ccc2O1 | 7.7 | 1.7
COc1ccc(NC(=O)N[C@H]2CC[C@@H](CCn3cc(-c4ccccc4F)nn3)O[C@@H]2CO)cc1 | -5.0 | -3.5
CNC[C@@H]1Oc2ccc(NC(=O)Nc3cccc4ccccc34)cc2CC(=O)N([C@H](C)CO)C[C@H]1C | 1.7 | 2.4
CN(C)C(=O)C[C@@H]1CC[C@H]2[C@H](COc3ccc(NC(=O)NCc4ccccc4)cc3C(=O)N2C)O1 | 5.8 | 5.5
Cc1noc(C)c1S(=O)(=O)Nc1ccc2c(c1)C(=O)N([C@H](C)CO)C[C@H](C)[C@@H](CN(C)Cc1ccc(-c3ccccc3)cc1)O2 | -15.8 | -19.2
C[C@H](CO)N1C[C@H](C)[C@H](CN(C)C(=O)Nc2ccc(N3CCN(C)CC3)cc2)OCc2cn(nn2)CCCC1=O | 11.3 | 13.9
COCC#Cc1cnc2c(c1)C(=O)N([C@H](C)CO)C[C@@H](C)[C@@H](CN(C)Cc1ccccc1)O2 | 7.3 | 17.3
C[C@@H]1CN([C@@H](C)CO)S(=O)(=O)c2ccc(C#Cc3ccncc3)cc2O[C@H]1CN(C)C(=O)Nc1ccc2c(c1)OCO2 | ? | nt

A portion of the library, so the mix of outcomes need not match the whole.
